Beta cell apopt: beta cell apoptosis inhibition; INS-1E cytokine-induced death, ATP luminescence, 48 h; percent of positive-control rescue, neutral wells zero; protection from apoptosis, % (no concentration beside the values); 300,000 compounds, 0.8% hits;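 active means all replicates at 75% or more, or half of them and the mean; inconclusive means half reach 75% but not the mean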;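 further: 0% = cytokine-treated negative control wells and 100% = positive control rescue; higher means more ATP so stronger rescue from cytokine killing; wells of about 40 µL received 100 nL stock; the first replicate is given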
AF4-AF9 inh: blocks AF4 peptide binding to human AF9. P42568. AlphaScreen, biotin-AF4 peptide binding to FLAG-AF9. inhibition, % at 10 µM. 350,000 compounds, 0.47% hits. AID 651704;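 active means every replicate reaching a set inhibition limit, whatever the replicate mean, cut at about 25% in these data; inconclusive means mean inhibition reaches that limit but some replicates miss it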;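 further: 0% = plate neutral control median and 100% = total signal loss; the record names both 10 and 1 µM as test concentration; the first replicate is given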
Target sequence (P42568 whole entry, looked up): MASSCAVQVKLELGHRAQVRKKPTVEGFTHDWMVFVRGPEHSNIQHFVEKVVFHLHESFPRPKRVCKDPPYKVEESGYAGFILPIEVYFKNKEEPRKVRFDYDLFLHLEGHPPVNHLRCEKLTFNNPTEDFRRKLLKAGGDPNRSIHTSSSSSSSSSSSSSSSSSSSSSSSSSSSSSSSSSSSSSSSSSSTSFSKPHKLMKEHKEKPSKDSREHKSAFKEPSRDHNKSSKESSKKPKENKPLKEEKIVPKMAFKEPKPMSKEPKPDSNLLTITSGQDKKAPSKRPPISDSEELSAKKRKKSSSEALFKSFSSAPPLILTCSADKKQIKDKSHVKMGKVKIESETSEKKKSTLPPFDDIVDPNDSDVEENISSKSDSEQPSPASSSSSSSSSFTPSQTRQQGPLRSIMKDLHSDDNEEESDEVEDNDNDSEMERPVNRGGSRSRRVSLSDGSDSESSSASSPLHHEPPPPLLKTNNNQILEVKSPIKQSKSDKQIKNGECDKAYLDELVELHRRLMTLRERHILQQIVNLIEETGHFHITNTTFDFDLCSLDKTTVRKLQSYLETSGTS
RanGTP-Imp inh: inhibitors of RanGTP-importin-beta interaction, primary screen, biochemical, FRET, CFP-Ran, YFP-importin-beta, homogeneous; cell-free CFP-Ran/YFP-importin-beta FRET ratio; inhibition, % (test concentration not listed); 300,000 compounds, 1.1% hits; AID 2216;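 active means most replicates above 15%; inconclusive means exactly half above 15%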;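 further: 0% = DMSO wells and 100% = Ran loaded with GDP instead of GTP; wells of about 40 µL received 100 nL stock; the first replicate is given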
Ecoli rRNA inh: selective bacterial rRNA inhibition in E. coli; E. coli WT GFP vs humanized-ribosome RFP mutants, fluorescence, 24 h; stronger effect = lower value; DMSO median 0, no signal -100; GFP signal change (wild-type ribosome), % (test concentration not listed); 350,000 compounds, 1.6% hits;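 active means significant combined selectivity score with lowered wild-type GFP, culture density cut under 30%, mutant RFP and density less affected; inactive means any of these conditions unmet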; further: one replicate is shown; some compounds called inactive have numbers as strong as hits
ALR inh: blocks human ALR sulfhydryl oxidase activity; P55789; 290,000 compounds, 3.8% hits; AID 485317; inhibition, % (concentration not given with the values); purified ALR, DTT oxidation, H2O2 HRP-luminol luminescence;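 active means mean and each replicate at 75% or more; inconclusive means only one of the two met; inactive means neither met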;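 further: stock transfer was 7.5 nL into about 7.5 µL; 0% = neutral wells and 100% = wells with inactivated enzyme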
Target sequence (P55789 whole entry, looked up): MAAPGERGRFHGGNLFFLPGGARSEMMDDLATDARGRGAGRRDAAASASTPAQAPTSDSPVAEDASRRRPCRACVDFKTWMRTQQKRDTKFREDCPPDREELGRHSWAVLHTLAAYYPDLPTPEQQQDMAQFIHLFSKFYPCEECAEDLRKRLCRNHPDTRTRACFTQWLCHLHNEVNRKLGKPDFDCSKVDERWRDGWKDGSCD
Calb FLC: C. albicans growth modulation with fluconazole; C. albicans CaCi-2 (fluconazole-resistant clinical isolate) + fluconazole, Alamar Blue growth, 48 h; growth inhibition, % (no concentration beside the values); 300,000 compounds, 0.57% hits; AID 1979;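 active means most replicates above 75%; inconclusive means exactly half above 75%; inactive means most below 75%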;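 further: all wells also contain fluconazole at 8 µg/ml as a sub-toxic cotreatment; 0% = median of DMSO wells and 100% = median of geldanamycin control wells; wells of about 8 µL received 7.5 nL stock; the first replicate is given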
T cruzi repl: blocks replication of Trypanosoma cruzi | inhibition, % (concentration not given with the values) | T. cruzi beta-gal in NIH3T3, luminescence, 90 h | AID 1885 | 300,000 compounds, 1.4% hits;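 active means mean inhibition across valid replicates above about 55%, limit read from the data; inconclusive means mean below that limit but half or more replicates reach it; inactive means mean below it, under half of replicates reach it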;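 further: signal also drops with host cell toxicity which is not excluded here; 0% = plate median of DMSO wells and 100% = zero luminescence signal; higher percent means less beta-gal luminescence so fewer parasites; stock transfer was 50 nL into about 50 µL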
FGF22 binding: shifts melting point of recombinant human FGF22; calls only at 9.99 µM; 340,000 compounds, 1.5% hits; Q9HCT0; AID 651658; recombinant FGF22 thermal shift, SYPRO orange fluorescence; percent of sucrose octasulfate shift, DMSO zero;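 active means melting point raised past a set limit in the mean and every replicate; inconclusive means no clear call; three in four hits are not shown here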
Target sequence (Q9HCT0 whole entry, looked up): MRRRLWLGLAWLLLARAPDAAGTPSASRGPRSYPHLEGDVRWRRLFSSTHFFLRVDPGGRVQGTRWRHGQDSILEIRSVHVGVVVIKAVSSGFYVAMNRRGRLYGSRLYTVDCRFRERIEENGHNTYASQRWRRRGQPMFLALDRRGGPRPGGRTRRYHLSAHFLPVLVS
Ecoli rRNA inh OD600: recorded beside Ecoli rRNA inh, whose call it bears; OD600 change, %; measured here: OD600 growth;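 optical density of the mix in the first replicate; 0 = DMSO median and -100 = no signal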
Ecoli rRNA inh RFP: also measured in Ecoli rRNA inh; calls as there; RFP signal change, %; measured here: RFP humanized mutant strains;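 first replicate; 0 = DMSO median and -100 = no signal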
* = called active by the depositor; i = inactive; ? = inconclusive; · = no result given.

No. | structure | Beta cell apopt | AF4-AF9 inh | RanGTP-Imp inh | Ecoli rRNA inh | Ecoli rRNA inh OD600 | Ecoli rRNA inh RFP | ALR inh | Calb FLC | T cruzi repl | FGF22 binding
1 | COC(=O)c1ccc(CN(Cc2ccc(C(=O)OC)o2)C(C)(C)C)o1 | -8 | · | 1.4 | · | · | · | 0 | -2 | -2 | ·
2 | Cn1c(SCC(=O)N/N=C/c2cccnc2)nnc1-c1ccccc1 | -1 | -3.1 | 2.5 | 3 | 4 | 0.7 | -1 | -4 | -1 | i
3 | COc1cccc(CNC(=O)CSc2nnc3c(n2)[nH]c2ccc(F)cc23)c1 | -4 | -3.9 | -0.2 | 7 | 19 | -2.8 | · | 5 | 10 | i
4 | CNC(=O)CS(=O)CC(=O)Nc1cc(OCCOC)c(Cl)cc1Cl (centres undefined) | -2 | 0.0 | ? | 14 | 10 | 0.5 | 1 | 15 | -9 | i
5 | Cc1cccc(C2Nc3ccccc3C(=O)N2c2ccccc2)n1 (centres undefined) | 6 | -12 | 0.6 | -4 | 4 | 0.5 | -1 | 10 | -9 | i
6 | O=C(O)c1cc(=O)[nH]c2ccc(S(=O)(=O)Nc3ccc(F)cc3)cc12 | -4 | 1.2 | 0.6 | 5 | 10 | -0.8 | -1 | 0 | -28 | i
7 | O=C(c1cccs1)c1no[n+]([O-])c1C(=O)c1cccs1 | 47 | · | 2.9 | · | · | · | 42 | 15 | 62* | ·
8 | Cn1c(C(=O)N2CCN(c3cccc(C(F)(F)F)c3)CC2)cc2sccc21 | -4 | · | 5.3 | · | · | · | -4 | 43 | -5 | ·
9 | CCc1nc2ccc(C(=O)NCc3ccccc3)cc2nc1CC | 6 | -1.1 | ? | 9 | 1 | 1.6 | -20 | 11 | -2 | i
10 | CC(=O)N1N=C(c2ccc(C)o2)CC1c1ccc(F)cc1 (centres undefined) | 0 | · | 1.0 | · | · | · | 3 | -1 | -10 | ·
11 | Cc1ccn2c(=O)nc(SCC(=O)N3N=C(c4cccs4)CC3c3ccc(F)cc3)nc2c1 (centres undefined) | 7 | 3.5 | -1.7 | -9 | -14 | 12 | -9 | 3 | 59* | i
12 | Cc1ccc(C)c(NC(=S)NCCCN2CCOCC2)c1 | -6 | 2.8 | -2.1 | 9 | 10 | 2.2 | 1 | -1 | -11 | i
13 | COc1ccc(CCN(C)C(=O)CCNC(=O)c2ccc(Br)cc2)cc1OC | -11 | -2.6 | 3.0 | 4 | 7 | -2.0 | 3 | 1 | -8 | i
14 | Cc1ccc(OCC(=O)NNC(=O)CSc2ncnc3sc(C)c(C)c23)cc1 | -3 | -1.3 | -1.7 | 14 | 6 | -3.5 | 2 | 0 | -1 | i
15 | O=C(/C=C/c1ccco1)NC(=S)Nc1ccccc1O | 0 | -1.2 | -3.6 | 7 | 16 | 9.6 | 46 | -2 | -15 | i
16 | Cc1ccc(S(=O)(=O)N(C)CC(=O)O/N=C(\N)c2ccccn2)cc1 | 3 | · | 7.5 | · | · | · | -7 | -9 | -7 | ·
17 | O=C(OCc1nnc(-c2cccs2)o1)C1=NN(c2ccccc2)C(=O)CC1 | 2 | 4.8 | · | 12 | 19 | 1.2 | -3 | · | · | i
18 | O=C(CN(C(=O)c1csnn1)c1ccccc1Cl)NCCc1ccccc1 | -3 | -1.9 | ? | 0 | 8 | 3.2 | 1 | 1 | -10 | i
19 | O=C(O)CCCC(=O)N1N=C(c2ccco2)CC1c1ccco1 (centres undefined) | -1 | 2.2 | ? | 7 | -5 | 2.8 | -7 | -6 | -30 | i
20 | CS(=O)(=O)N1CCN(c2ccc(C(=O)N3CCOCC3)cc2[N+](=O)[O-])CC1 | -6 | -0.8 | 4.8 | 21 | 15 | -0.9 | -2 | 1 | -7 | i
21 | Cc1ccc(S(=O)(=O)N2CCC(C(=O)Nc3ccc4c(c3)COC4=O)CC2)cc1 | · | · | 0.7 | · | · | · | 3 | 5 | -5 | ·
22 | C=CCn1c(CNC(=O)c2ccccc2F)nnc1SCC(=O)NC(C)c1ccccc1 (centres undefined) | 1 | -0.1 | 1.8 | 2 | 5 | -0.7 | 5 | -10 | -5 | i
23 | O=c1c2c(nc3n1CCCCC3)-c1ccccc1CC21CCCCC1 | -3 | · | 3.2 | · | · | · | -3 | 7 | 41 | ·
24 | NC(=O)NC(=O)CN1c2cccc3cccc(c23)S1(=O)=O | -9 | 0.8 | -1.8 | 0 | 2 | 0.6 | · | 5 | -7 | i
25 | COc1ccccc1OC(C)C(=O)N1CCC(Cc2ccccc2)CC1 (centres undefined) | -7 | -7.8 | 0.2 | -1 | -22 | 2.2 | -50 | 7 | ? | i
26 | CCOc1ccccc1NC(=O)N1CCC(c2nc3ccccc3[nH]2)CC1 | 3 | · | -2.7 | · | · | · | -6 | 30 | 0 | ·
27 | COc1ccc(N(C(=O)c2snc(C(N)=O)c2N)C(C(=O)NCc2ccccc2)c2ccc(F)cc2)c(OC)c1 (centres undefined) | -5 | 0.0 | -1.3 | 4 | -1 | 2.2 | · | 22 | 13 | i
28 | Cc1onc(C(=O)Nc2ccc(OC(F)(F)F)cc2)c1[N+](=O)[O-] | -4 | · | 1.5 | · | · | · | -1 | -6 | 7 | ·
29 | COc1cc(CN2CC(C)CC(C)C2)cc([N+](=O)[O-])c1O (centres undefined) | 0 | -15 | 0.3 | 9 | 14 | 3.3 | 1 | -6 | -10 | ·
30 | ClC(CCN1CCN(Cc2ccccc2)CC1)c1ccccc1 (centres undefined) | 2 | 13 | ? | 12 | 0 | -0.7 | 9 | -21 | 27 | i
31 | CCn1c(SCC(=O)OC2CCCCC2)nc2ccccc2c1=O | -3 | · | 0.7 | · | · | · | -5 | ? | -2 | ·
32 | O=C(Nc1ccc(S(=O)(=O)N2CCOCC2)cc1)C1CCN(S(=O)(=O)c2ccccc2)CC1 | 2 | 2.3 | 0.3 | 0 | 2 | -1.8 | · | 21 | 3 | i
33 | CS(=O)(=O)CCC(C(=O)OCc1ccc(Br)cc1)N1C(=O)c2ccccc2C1=O (centres undefined) | -6 | · | -0.2 | · | · | · | 0 | 10 | -12 | ·
34 | CCc1nc2ccccc2n1CC1CC1(Cl)Cl (centres undefined) | -4 | -1.7 | 4.7 | -3 | -1 | 1.2 | -1 | 0 | -7 | i
35 | O=C(Nc1nnc(-c2ccc3c(c2)CCCC3)o1)c1ccccc1Cl | · | 5.7 | 3.1 | -56 | -74 | -14 | 5 | 29 | 2 | i
36 | COC(=O)C1CCCCN1C(=O)CCc1nnc(CCc2c[nH]c3ccccc23)o1 (centres undefined) | 0 | 0.1 | -0.7 | 4 | -1 | -5.5 | -4 | 0 | 11 | i
37 | CCCCCCOc1ccc(C(=O)O)cc1C#N | 3 | · | 4.0 | · | · | · | · | 10 | -17 | ·
38 | Cc1ccc(C)c(N2CN(Cc3cccnc3)CNC2=S)c1 | · | 0.3 | 4.8 | 4 | 2 | -0.1 | -4 | -18 | 61* | i
39 | COc1cc(C=NNC(=O)c2cccnc2)ccc1OC(=O)c1ccccc1F | 0 | -5.9 | · | · | · | · | 20 | · | · | i
40 | CSc1nc(-c2ccccc2)nc2c1COC(C)(C)C2 | 3 | · | 0.5 | · | · | · | -1 | -8 | -4 | ·
41 | CN(C)c1cccc(C(=O)NNC(=O)CN2C(=O)C3CC=CCC3C2=O)c1 (centres undefined) | 6 | 3.6 | · | -1 | -3 | 4.7 | 40 | · | · | ·
42 | COc1ccc(C(=O)Nc2nc(-c3ccc([N+](=O)[O-])cc3)c(-c3ccc(OC)cc3)s2)cc1 | · | 9.7 | -14 | 19 | 10 | 1.7 | -6 | -3 | 1 | i
43 | CCc1ccc(C(CC(=O)c2ccc(Cl)cc2)C(=O)O)cc1 (centres undefined) | · | · | -0.6 | · | · | · | 6 | 1 | -9 | ·
44 | Cc1ccc(OCC(=O)N2c3ccccc3NC(=O)C2(C)C)c([N+](=O)[O-])n1 | -2 | -1.4 | -0.9 | 9 | 7 | 0.0 | -19 | -14 | 12 | i
45 | CCOC(=O)c1sc(/N=C/c2ccc(O)cc2O)cc1C | -28 | · | -3.9 | · | · | · | -1 | 22 | 4 | ·
46 | CC(C)(C)C(=O)Cn1c[n+](N)cn1 | 2 | · | -1.4 | · | · | · | 2 | -16 | -5 | ·
47 | CC(C)n1cc(/C=C/c2cc[n+](C)cc2)c2ccccc21 | · | -7.8 | -361 | 79 | -18 | 63 | · | 87* | 45 | i
48 | Cc1[nH]nc2c1C(c1ccc3c(c1)OCO3)C(C#N)=C(N)O2 (centres undefined) | 1 | · | 4.8 | · | · | · | 12 | 0 | -26 | ·
49 | O=C(NNC(=O)c1cc(-c2ccco2)nc2ccccc12)c1ccccc1 | -5 | -4.2 | -0.4 | 10 | 8 | 1.6 | 18 | -13 | 5 | i
50 | CNC(=O)c1ccccc1NC(=O)c1cccc(S(=O)(=O)N2CCC(C)CC2)c1 | 8 | · | 5.4 | · | · | · | -9 | 7 | 14 | ·
51 | CC1CCN(CCNC(=O)C2CCCN(S(=O)(=O)c3cccc4nsnc34)C2)CC1 (centres undefined) | 2 | 1.3 | -1.8 | 8 | 9 | 1.9 | -4 | 3 | 11 | i
52 | O=C(/C=C/c1ccc(F)cc1)N1CCN(S(=O)(=O)/C=C/c2ccccc2)CC1 | -1 | 0.9 | -0.3 | 18 | 15 | -3.8 | -6 | -5 | 6 | i
53 | c1ccc(-n2nnc(-c3cccnc3)n2)cc1 | -2 | 2.4 | -4.2 | 9 | 24 | -9.5 | 1 | -5 | -9 | i
54 | CC(=O)c1cccc(NC(=O)N2CCC(NC(=O)C34CC5CC(CC(C5)C3)C4)CC2)c1 | 4 | -0.8 | 1.2 | 6 | 7 | -0.7 | -13 | -22 | 27 | i
55 | CC(=O)N1CCCc2ccccc21 | -3 | · | -2.5 | · | · | · | · | -13 | 3 | ·
56 | CC(O)CNc1nc2ccccc2n1CC(=O)NCCc1ccc(Cl)cc1 (centres undefined) | -7 | · | ? | · | · | · | -16 | 0 | 1 | ·
57 | COc1ccc(-c2noc(CCC(=O)NCC3CCCO3)n2)cc1OC (centres undefined) | -5 | -2.5 | -1.9 | 12 | 1 | 2.0 | -4 | -3 | -3 | i
58 | Cc1cc(OCc2cc(C(=O)NCc3csc(C(C)C)n3)no2)cc(C)c1Cl | -5 | -0.3 | 4.7 | -4 | -10 | 1.7 | -4 | -17 | 22 | i
59 | Cc1ccc2nc3c(cc2c1)c(C)nn3-c1ccccc1 | 2 | -68 | 61* | 12 | 14 | -0.3 | · | -8 | 0 | i
60 | COc1ccc(Nc2cc(C(=O)NCCCOC(C)C)c3ccccc3n2)c(OC)c1 | 2 | 6.3 | ? | -4 | -6 | -4.4 | 5 | 5 | -18 | i
61 | CC(C)C(C)(C#N)NC(=O)CSc1nnc(-c2ccccc2)o1 (centres undefined) | -1 | · | 3.0 | · | · | · | -14 | 15 | 8 | ·
62 | CC(C)(C)NC(=O)CCN(/N=C/c1ccc([N+](=O)[O-])o1)C1=NS(=O)(=O)c2ccccc21 | -6 | 5.3 | · | · | · | · | -62 | · | · | i

Only part of the results is shown. The share of hits here may be higher or lower than overall.
